Mtb hypoxia inh – inhibitors of hypoxia-regulated fluorescent reporter in Mycobacterium tuberculosis | actives 0.1% (n = 300,000) | fluorescence inhibition, % (test concentration not listed) | M. tuberculosis hypoxia-regulated fluorescent reporter, fluorescence;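 active = 35 to 45% if threefold the growth effect, above 45% if 1.5-fold the growth effect; inactive = the rest, general growth blockers included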;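 note: wells of about 50 µL received 100 nL stock; 0% = vehicle wells and 100% = reference inhibitor wells; whole bacteria with a GFP reporter of the hypoxia response; strong numbers were not always called active; many hits fall short of the cut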
RN4220 kill – kills Staphylococcus aureus RN4220; S. aureus RN4220 growth, OD600, 16 h; inhibition, % (test concentration not listed); actives 0.33% (n = 330,000);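 active = z-score of -3 or lower and OD600 up to 0.18 on both plates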;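 note: plate controls were untreated cells for no effect and reference antibiotic for full effect; stock transfer was 100 nL into about 80 µL; one replicate is shown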
BJeLR viability – kills HRASV12-expressing BJeLR cells. BJeLR (HRASV12) viability, CellTiter-Glo ATP luminescence, 48 h; reference of the scale not given here. inhibition, % (concentration not given with the values). actives 0.17% (n = 300,000);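 active = replicate mean above 50%; inconclusive = above 50% but judged a plate artefact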;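 note: 50 nL library stock added to about 25 µL; numbers are from one replicate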
Sa ugtP lethal – kills S. aureus RN4220 lacking UgtP; S. aureus RN4220 ugtP deletion, OD600 growth, 16 h; some inactives read as strong as hits; growth inhibition, % (concentration not given with the values); actives 0.54% (n = 330,000);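 active = z-score under -3 and OD600 up to 0.15 on both plates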;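 note: plate controls were untreated wells for no effect and antibiotic for full effect; wells of about 80 µL received 100 nL stock; the first replicate is given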
Autofluor counter – flagged as autofluorescent in microsphere protease counterscreen | compound autofluorescence counterscreen, microsphere flow cytometry; active compounds read high | fluorescence intensity (no concentration beside the values) | actives 3.1% (n = 360,000);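 active = at least 3 SD above the mean of all compounds, about 16000 in these data; inconclusive = too few beads counted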;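 note: 100 nL of 1 mM stock went into each well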
PrP 5UTR inh – suppresses PrP 5' UTR mRNA reporter expression; cell-based PrP 5' UTR mRNA reporter, plate reader; inhibition, % (no concentration beside the values); actives 0.35% (n = 340,000); AID 488862;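 active = every replicate at 50% or more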;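 note: 0 = median of the neutral control wells; tested in H4 reporter cells; numbers are from one replicate; inactives centre near -14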
Mtb hypoxia inh growth – also measured in Mtb hypoxia inh; calls as there; growth inhibition, %; measured here: M. tuberculosis growth (absorbance);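 0% = vehicle and 100% = reference antibiotic; read after six days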
The depositor's hits bear a star; u = inconclusive; x = no result given; & = joins results of further samples.

SMILES	Mtb hypoxia inh	Mtb hypoxia inh growth	RN4220 kill	BJeLR viability	Sa ugtP lethal	Autofluor counter	PrP 5UTR inh
CCc1ccccc1OCCOc1ccc(C)cc1OC	x	x	9.0	1	35	4774	-13
CC(=O)N1c2ccc(S(=O)(=O)NCC3CCC(C(=O)N4CCCC(C)C4)CC3)cc2CC1C (stereo unspecified)	-6	-2	5.0	-10	-8	4891	-13
CCCCCCCCCCCCCCCC[N+](C)(C)C	3	12	100*	-6	100*	4216	-31
Cc1ccnc(NC(=S)NC(=O)c2ccco2)c1	x	x	x	17	x	2197	-96
O=C(Nc1ccc(F)cc1)c1cccc(N2C(=O)C3C4CCC(C4)C3C2=O)c1 (stereo unspecified)	2	12	1.7	12	0	2544	-9
C/C(C=NNC(=O)CN1CCN(Cc2ccccc2)CC1)=C\c1ccco1	6	10	0.8	x	4	x	x
CCCn1nnc(NC(=S)NC(=O)c2ccc(-c3ccc(Br)cc3)o2)n1	0	6	2.5	-5	-9	4084	-23
Cc1ccc(-c2ccc(CCC(=O)O)n2-c2cccc(O)c2)cc1	1	2	-3.4	1	77	19713*	-24
COC(=O)C1=C(C)NC(C)=C(C(=O)OCC(C)C)C1c1ccccc1[N+](=O)[O-] (stereo unspecified)	x	x	x	16	x	5432	20
CC(C)CNC1CS(=O)(=O)CC1O (stereo unspecified)	7	1	8.8	3	-1	3101	-15
O=C(NCC1CCCO1)c1ccc(NS(=O)(=O)c2cccs2)cc1 (stereo unspecified)	-8	-4	-5.8	-3	-2	6293	-8
COc1ccc(NC(=O)CSc2nnc(COc3ccccc3)n2Cc2ccco2)cc1OC	3	4	-1.8	5	-3	3577	-9

2 entries from above, with values under each structure:
Values run as follows: Mtb hypoxia inh, Mtb hypoxia inh growth, RN4220 kill, BJeLR viability, Sa ugtP lethal, Autofluor counter, PrP 5UTR inh
O=C(NCC1CCCO1)c1ccc(NS(=O)(=O)c2cccs2)cc1 (stereo unspecified)
  -8, -4, -5.8, -3, -2, 6293, -8
COc1ccc(NC(=O)CSc2nnc(COc3ccccc3)n2Cc2ccco2)cc1OC
  3, 4, -1.8, 5, -3, 3577, -9

(more compounds)
SMILES	Mtb hypoxia inh	Mtb hypoxia inh growth	RN4220 kill	BJeLR viability	Sa ugtP lethal	Autofluor counter	PrP 5UTR inh
CCCCNC(=O)c1onc(CSc2ccccc2)c1C(=O)NCCCC	10	7	8.9	0	9	3474	-21
Cc1nc(C2COc3ccccc3O2)sc1C(=O)O (stereo unspecified)	0	7	2.3	15	3	4062	-18
CC(C)COc1ccc(C(=O)CCN2CCCCC2)cc1	23	-17	-22	0	-4	3294	-9
Cc1cccc(C(=O)O)c1NC(=O)Cc1cccc2ccccc12	-1	10	4.1	20	-3	4058	-12
CCCCn1c(NCCC)nc2c1c(=O)[nH]c(=O)n2C	x	x	2.4	-2	3	3306	-9
CCOc1ccccc1CNC(=O)CCNC(=O)Cn1ccc2ccccc2c1=O	19	5	1.5	-1	2	3167	-19
CCOc1ccc(CCNC(=O)c2nnn(CC(=O)Nc3c(C)cc(C)cc3C)c2N)cc1OCC	1	-8	7.5	7	9	4427	0
CCCCC(=O)Oc1cc(C)[nH]c(=O)c1[N+](=O)[O-]	-3	7	2.4	-4	1	2842	0
COc1ccccc1C(=O)CN1C(=O)NC2(CCc3ccccc32)C1=O (stereo unspecified)	9	7	5.4	5	8	7602	-19
O=C(CSc1nnc(-c2ccc(OC(F)F)cc2)o1)NC(=O)NCc1ccco1	9	12	2.3	0	-25	6407	-2
O=C(Nc1cccc([N+](=O)[O-])c1)Nc1ccc2c(c1)OCCO2	-1	7	-2.6	-4	1	4416	-125
Cc1ccc(CN2C(=O)c3ccccc3C2C(=O)NCC2CCCO2)cc1 (stereo unspecified)	9	7	3.7	-6	4	3473	-13
COC(C)(C)[C@]12CC(O)(C(C)C)ON1[C@H]1CCCCC1N2O (stereo partly specified)	9	13	-11	8	-4	3160	5
CC1CCN(C(=O)Cn2ncc3c([nH]c4ccccc43)c2=O)CC1	-1	3	3.2	7	4	5152	-13
O=C1CC(c2ccccc2)n2ncnc2N1 (stereo unspecified)	-3	7	3.8	-4	5	21144*	-19
O=C(NCc1cccnc1)C1CC(c2cccc(Br)c2)=NO1 (stereo unspecified)	4	6	-0.6	6	6	3728	-14
CCCCNC(=S)N/N=C/c1ccccc1F	x	x	x	0	x	7366	-7
COc1cccc(C2CC(c3cccs3)=NN2C(=O)CSc2nc3ccccc3s2)c1OC (stereo unspecified)	5	1	0.5	-27	2	2580	-16
COc1ccc(-c2cc(=O)oc3cc(O)ccc23)cc1	3	-4	5.6	-3	5	2885	-3
Cc1cc(C)c(NC(=O)CNC(=O)[C@@H]2CCCN2C(=O)c2cccs2)c(C)c1	12	-2	4.8	x	2	u	x
CCOC(=O)C1C2COc3ccccc3C2N2C(=O)N(c3cccc(F)c3)C(=O)[C@]12C (stereo partly specified)	8&8	4&5	6.7&4.7	x	3&1	x	x
CN(C(=O)CN1C(=O)NC(c2ccccc2)(c2ccccc2)C1=O)C1CCS(=O)(=O)C1 (stereo unspecified)	-11	11	-0.2	x	-2	3768	-2
COc1ccccc1CNC(=O)CSc1nc2ccccc2c(=O)n1CCCN1CCOCC1	6	11	4.4	-5	6	2050	-17
O=C(Cc1cccs1)NN=C/C=C/c1ccccc1	8	1	5.9	x	8	x	x
CCn1cc(S(=O)(=O)CC(=O)Nc2ccc3c(c2)OCCO3)c2ccccc21	5	1	1.3	x	2	4067	-25
CC(=O)OCC1(C)CN(c2ccccc2)NC1=O (stereo unspecified)	12	12	4.3	6	3	2173	-21
O=C(NC(=S)NCc1ccccc1)c1ccc2c(c1)OCO2	9	15	1.0	0	24	2112	-18
O=C(NC(Cc1ccccc1)C(=O)N1CCCCCC1)c1ccccc1 (stereo unspecified)	8	6	2.0	-2	4	5683	-8
O=C(CN(C1CCCCC1)S(=O)(=O)c1ccc(Cl)cc1)NCCCO	4	13	4.4	-8	-8	8820	-16
COc1ccc(NC(=O)CN2C(=O)NC3(CCCC3)C2=O)cc1	2	1	-0.4	7	7	4381	-21
Cc1cc(NS(=O)(=O)c2ccc(NC(=O)COc3ccc(Cl)cc3)cc2)no1	9	18	13	-14	7	2727	-5
Cc1c(NC2=C(Cl)C(=O)N(c3ccccc3)C2=O)c(=O)n(-c2ccccc2)n1C	5	-4	0.2	1	4	4217	-17
Cc1cccc(S(=O)(=O)c2c(N)n(N=Cc3ccco3)c3nc4ccccc4nc23)c1	2	4	-3.0	x	-9	x	x
CCCc1nn2c(=O)cc(COc3cccc(NC(=O)c4ccco4)c3)nc2s1	-4	7	2.4	-9	4	4542	17
Cn1c(CCC(=O)OCC(=O)Nc2ccc(Oc3ccccc3)cc2)nc(=O)c2ccccc21	-3	-2	2.9	-7	-5	2091	-25
COc1cc(/C=C2/C(=O)N(c3ccc(C)c(C)c3)N=C2C)cc([N+](=O)[O-])c1O	-3	5	-0.2	6	-3	3572	-21
CCOc1cc(OCC)c(C(C)=O)cc1OCC	0	12	1.6	x	2	4255	0
Cc1ccc(-n2nc3c(=O)n(CCCC(=O)NCc4ccc(Cl)cc4)nc(C)c3c2C)cc1	-1	-5	-0.5	4	-3	5629	-6
Clc1ccc2nnc(Cl)n2n1	x	x	5.3	4	7	3482	3
Cc1ccc(NC(=O)C2CCN(S(=O)(=O)c3cnc[nH]3)CC2)cc1C	-4	5	-4.0	4	5	11385	-21
COCc1nnc(NC(=O)c2ccc(OC)cc2OC)s1	10	0	5.6	9	4	2867	-51
CCOC(=O)C1CCN(C(=O)COC(=O)c2ccccc2OCC)CC1	10	6	2.2	x	8	3005	-22
O=C(O)c1cc(O)c2c(c1)[C@@H]([C@H]1c3cc(C(=O)O)cc(O)c3C(=O)c3c(O[C@@H]4O[C@H](CO)[C@@H](O)[C@H](O)[C@H]4O)cccc31)c1cccc(OC3O[C@H](CO)[C@@H](O)[C@H](O)[C@H]3O)c1C2=O (stereo partly specified)	x	x	x	-11	x	4822	-24
COc1ccc(CC(=O)Nc2nccs2)cc1S(=O)(=O)N1CCOCC1	-10	2	2.3	x	2	5813	6
CC(C)(C)CC(C)(C)c1ccc(OCC(=O)NN=Cc2ccc(S(=O)(=O)O)o2)cc1	2	9	3.7	x	3	x	x
COc1ccc(-c2sc3ccc(N4CCOCC4)cc3c2-c2ccc(OC)c(F)c2)cc1	-2	5	-5.7	-1	7	3633	-23
Cn1ncc(Br)c1C(=O)Nc1c(F)c(F)cc(F)c1F	5	6	0.4	-2	-4	21682*	-102
CCCOc1ccccc1C(=O)N(Cc1cccc(Br)c1)C1CCS(=O)(=O)C1 (stereo unspecified)	8	8	4.1	-3	8	4952	-2
O=S(=O)(c1ccc(Cl)nc1)N1CCN(c2ncccn2)CC1	14	3	3.3	-5	11	4559	-10
Cc1ccc(NC(=O)COc2ccc(/C(N)=N/O)cc2)cc1C	14	5	2.9	6	0	7798	-4
CC(=O)Nc1ccc(OC(=O)CC2SC(=O)NC2=O)cc1 (stereo unspecified)	8	13	1.4	-11	3	5903	-40
COc1cccc(/C=N/NC(=O)c2ccncc2)c1OC(=O)c1ccc(Br)cc1	x	x	x	1	x	6578	-7
CCCC/C(O)=C1\C(=O)CC(C)(C)CC1=Nc1ccc(OC)cc1	4	2	6.8	-4	-3	3924	-19
CNC(=O)c1cc2cc(OC)ccc2oc1=O	6	2	2.2	1	3	21752*	-7
CCC1CN(S(=O)(=O)c2cc(-c3cc(C)no3)ccc2OC)c2cc(C)ccc2O1 (stereo unspecified)	1	-6	-2.5	10	15	6548	-12
COc1ccccc1NC(=O)COC(=O)CCS(=O)(=O)c1ccc(C)cc1	-4	12	0.2	0	1	6003	-52
Cc1nn(C(=O)c2ccc([N+](=O)[O-])cc2)c(C)c1Br	1	14	4.3	0	6	4115	-5
CSC(=NC#N)N1CCN(C(c2ccccc2)c2ccccc2)CC1	5	7	-3.7	12	11	3795	-3
CCCc1cc(=O)oc2c3c(cc(OCC(=O)N4CCC[C@H]4C(=O)O)c12)OC(C)(C)CC3	x	x	-0.2	6	-8	5874	-9
CCOC(=O)CCc1c(C)nc(SCc2ccc(C(=O)O)cc2)c(C#N)c1C	-7	3	2.5	-6	-5	3006	4
(more compounds)
SMILES	Mtb hypoxia inh	Mtb hypoxia inh growth	RN4220 kill	BJeLR viability	Sa ugtP lethal	Autofluor counter	PrP 5UTR inh
O=[N+]([O-])c1ccc(C[n+]2cccc3c4ccccc4ccc32)cc1	-1	6	-3.4	5	-4	7228	-56
CCC(c1nnnn1Cc1ccccc1)N(Cc1cc2cc(OC)ccc2[nH]c1=O)CC1CCCO1 (stereo unspecified)	4	8	11	1	1	2841	-1
COC(=O)c1ccc(NC(=O)C2C3C=CC(C3)C2C(=O)O)cc1 (stereo unspecified)	2	-1	-0.5	4	2	3870	-28
O=C(NNS(=O)(=O)c1ccc(F)cc1F)C1Cc2c(ccc3ccccc23)O1 (stereo unspecified)	-1	15	11	10	-22	4235	8
O=C(O)c1ccccc1C(=O)Nc1nccs1	0	-1	4.4	-1	4	9412	-21
CCOC(=O)C(CC)Sc1nnc(COc2ccc(C)cc2)n1-c1ccccc1 (stereo unspecified)	-1	7	4.6	-2	-11	3993	-20
CN(/N=C/c1ccc(-c2ccc([N+](=O)[O-])cc2)o1)c1ccccc1	x	x	x	-5	x	8003	-10
CC1(C(=O)O)CCCC2(C)c3cc(O)ccc3CCC12 (stereo unspecified)	8	-3	4.4	5	20	3246	x
CCOc1ccc(CNC(=O)CCCC(=O)n2ncc3cc(C)ccc32)cc1	3	15	-4.7	5	-5	5161	-25
COc1ccc(CCNS(=O)(=O)c2cc3c4c(c2)CCN4C(=O)CC3)cc1OC	5	7	1.9	1	3	u	-10
O=C(Nc1nccs1)NC(C(F)(F)F)C(F)(F)F	3	1	7.2	5	5	3638	-14
COc1cccc(/C=N/NC(=O)Cn2ccnc2C)c1	x	x	x	-8	x	2519	-27

3 compounds drawn at random from the list so far, as already listed:
SMILES	Mtb hypoxia inh	Mtb hypoxia inh growth	RN4220 kill	BJeLR viability	Sa ugtP lethal	Autofluor counter	PrP 5UTR inh
O=C(Nc1nccs1)NC(C(F)(F)F)C(F)(F)F	3	1	7.2	5	5	3638	-14
CC1(C(=O)O)CCCC2(C)c3cc(O)ccc3CCC12 (stereo unspecified)	8	-3	4.4	5	20	3246	x
O=C(NNS(=O)(=O)c1ccc(F)cc1F)C1Cc2c(ccc3ccccc23)O1 (stereo unspecified)	-1	15	11	10	-22	4235	8
